Compound activity: PubChem BioAssay, several laboratories
Bead autofluor – flagged as autofluorescent in microsphere protease counterscreen; fluorescence intensity (test concentration not listed); compound autofluorescence counterscreen, microsphere flow cytometry; active compounds read high; 360,000 compounds, 3.1% hits;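 active = at least 3 SD above the mean of all compounds, about 16000 in these data; inconclusive = too few beads counted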;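 note: 100 nL of 1 mM stock went into each well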
Sa ugtP lethal – compounds lethal to S. aureus RN4220 ugtP deletion mutant | OD600 growth, 16 h; some inactives read as strong as hits | growth inhibition, % (concentration not given with the values) | 330,000 compounds, 0.54% hits;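 active = z-score under -3 and OD600 up to 0.15 on both plates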;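 note: plate controls were untreated wells for no effect and antibiotic for full effect; wells of about 80 µL received 100 nL stock; the first replicate is given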
Sa RN4220 lethal – kills Staphylococcus aureus RN4220 | S. aureus RN4220 growth, OD600, 16 h | inhibition, % (test concentration not listed) | 330,000 compounds, 0.33% hits;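 active = z-score of -3 or lower and OD600 up to 0.18 on both plates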;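 note: plate controls were untreated cells for no effect and reference antibiotic for full effect; stock transfer was 100 nL into about 80 µL; one replicate is shown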
PrP 5UTR inh – inhibition of PrP 5' UTR reporter expression | cell-based PrP 5' UTR mRNA reporter, plate reader | inhibition, % (no concentration beside the values) | 340,000 compounds, 0.35% hits;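 active = every replicate at 50% or more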;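 note: 0 = median of the neutral control wells; tested in H4 reporter cells; numbers are from one replicate; inactives centre near -14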
Mtb hypoxia rep – reduces hypoxia-regulated biosensor signal in M. tuberculosis. M. tuberculosis hypoxia-regulated fluorescent reporter, fluorescence. AID 1159583. fluorescence inhibition, % (concentration not given with the values). 300,000 compounds, 0.1% hits;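 active = 35 to 45% if threefold the growth effect, above 45% if 1.5-fold the growth effect; inactive = the rest, general growth blockers included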;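 note: wells of about 50 µL received 100 nL stock; 0% = vehicle wells and 100% = reference inhibitor wells; whole bacteria with a GFP reporter of the hypoxia response; strong numbers were not always called active; many hits fall short of the cut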
BJeLR viability – BJeLR cell viability loss; 300,000 compounds, 0.17% hits; BJeLR (HRASV12) viability, CellTiter-Glo ATP luminescence, 48 h; reference of the scale not given here; inhibition, % (no concentration beside the values);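 active = replicate mean above 50%; inconclusive = above 50% but judged a plate artefact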;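 note: 50 nL library stock added to about 25 µL; numbers are from one replicate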
Mtb hypoxia rep growth – further read-out of Mtb hypoxia rep, marked with its call; growth inhibition, %; measured here: M. tuberculosis growth (absorbance);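 0% = vehicle and 100% = reference antibiotic; read after six days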
Active calls of the source: *; ? = inconclusive; . = not tested or not shown; & = joins results of further samples.

SMILES	Bead autofluor	Sa ugtP lethal	Sa RN4220 lethal	PrP 5UTR inh	Mtb hypoxia rep	Mtb hypoxia rep growth	BJeLR viability
COc1ccc(OCCOC(=O)Nc2ccccc2)cc1	7704	-2	1.7	0	-2	9	-9
CCCCN(C(=O)c1ccccc1OCc1ccc(F)cc1)c1c(N)n(CC(C)C)c(=O)[nH]c1=O	3993	6	2.7	-33	1	-10	6
CCc1ccc(N(CC)C(=O)c2cn(C)c(=O)c3ccccc23)cc1	3615	9	1.0	-3	12	4	-7
CCN(CC)CCC(O)(c1ccccc1)C1CCCCC1 (stereo not drawn)	60438*	4	0.9	-9	4	-2	-6
COc1ccccc1NC(=O)CN(c1ccccc1C)S(C)(=O)=O	3017	9	3.4	-29	3	-4	3
Cc1cccc(NC(=O)c2oc3c(c2C)C(=O)CC(C)(C)C3)n1	7653	-32	-0.6	.	-5	1	-16
Cc1cc(C)c[n+](-c2nc3ccccc3nc2C(=C=[N-])C#N)c1	2186&5764	4&-2	6.5&-2.8	-28&-2	15	4	-1&-8
COc1cc(C=NNC(=O)c2c(C)nc3cc(C)ccn23)ccc1O	.	1	0.0	.	13	4	.
Cn1nc(C(=O)NNc2c(F)c(F)cc(F)c2F)c2ccccc2c1=O	4339	15	6.5	-9	10	6	7
Cc1ccn2c(c1)nc(=O)c1cc(S(=O)(=O)N3CCC(C)CC3)ccc12	5900	9	3.9	-9	19	3	3
CCN(CC(=O)Nc1ccc2c(c1)OCCO2)C(=O)CCc1ccc(OC)cc1	.	5	1.1	-44	1	-4	.
COCCN=c1scc(-c2cc(OC)ccc2OC)n1/N=C/c1c[nH]c2ccccc12	2429	.	.	-7	.	.	-8
O=C(CSc1nc2ccccc2c(=O)n1CCC(=O)N1CCN(c2ccccc2)CC1)NCC1CCCO1 (stereo not drawn)	3141	2	13	-15	-5	15	-3
CC(=NNC(=O)CNS(=O)(=O)c1ccccc1)c1ccc(Br)cc1	.	13	0.4	.	13	1	.
COc1cc2c(cc1OC)C(C)N(Cc1ccc3c(c1)OCO3)CC2 (stereo not drawn)	5798	10	5.9	-6	.	.	7
Cc1ccc(NC(=O)Cc2ccccc2)c(C)c1	.	6	2.5	.	6	1	3
CC(C)n1c(=S)[nH]c2cc(Cl)ccc21	3288	3	3.4	-19	5	5	2
CC(CCc1ccccc1)=NNC(=O)C(=O)NCc1ccccc1	.	7	4.3	.	-6	3	.
CC(C)C(C(=O)NCC1CCCO1)N(C(=O)CNS(=O)(=O)c1ccccc1)C1CCCCC1 (stereo not drawn)	3732	0	3.1	-13	-16	-8	-5
CCN(CC(=O)Nc1c(F)cccc1F)C(=O)c1cccc(S(=O)(=O)N(C)c2ccccc2)c1	?	6	6.3	-21	8	-2	4
N#CCSc1ccsc1C(=O)Nc1ccc(F)cc1	16375*	-4	1.0	-12	-9	9	14
O=C(N/N=C\c1ccncc1)c1ccccc1O	1911	.	.	-11	.	.	1
CC(=O)NNc1cc(C)nc(N)n1	4464	5	5.2	.	11	5	1
CC(C)CCNC(=O)NC(=O)COC(=O)CCN=C1NS(=O)(=O)c2ccccc21	3995	5	0.2	-22	14	5	2
Cc1cc(S(=O)(=O)N2CCCC(C)C2)ccc1-n1cnnn1 (stereo not drawn)	2980	8	2.3	-21	7	-8	6
COc1cccc(N(CC(=O)NCC2CCCO2)C(=O)CNS(=O)(=O)c2ccccc2)c1 (stereo not drawn)	3735	2	4.8	0	2	6	-9
CCc1ccc(NC(=O)CSc2nc(O)cc(=O)n2C2CCCC2)cc1	4391	2	1.4	-7	4	-1	1
COc1cccc(OCC(=O)N2CCCc3ccccc32)c1	3740	2	4.8	-24	3	7	-9
c1ccn2cc(-c3ccc4c(c3)OCO4)cc2c1	4389	5	13	-89	6	11	-5
COc1ccc(/C=N/NC(=O)c2cc(-c3ccc(C)cc3C)nc3ccccc23)cc1COC(C)=O	4702	.	.	11	.	.	-3
CNc1ccn(C2CCCO2)c(=O)n1 (stereo not drawn)	4216	4	1.3	-23	13	8	-3
O=C(CSc1cccc[n+]1[O-])NC1CCCCC1	?	12	3.8	-18	4	-1	.
CCOC(=O)c1c(C)c(C(=O)N2CCCCCC2)c(C)n1CC	20617*	-4	0.3	-77	7	5	2
CCN1C(=NCCOC)NC(c2cccs2)C(C(=O)OC)=C1C (stereo not drawn)	.	-1	2.1	.	21	14	.
Cc1sc2ncn(CC(=O)NCCCC(=O)N3CCC(C(N)=O)CC3)c(=O)c2c1C	6743	5	1.3	-8	9	1	-1
N/C(=N\OC(=O)CCn1cccc(C(F)(F)F)c1=O)c1ccc(OC(F)(F)F)cc1	6729	7	3.5	.	3	7	3
O=c1[nH]c(=O)n(-c2cccc3ccccc23)c(O)c1/C=N/N1CCCCCC1	4054	-2	3.1	-25	0	2	-1
O=C1C2=C(c3ccccc31)[N+](=O)C1CCCCC1N2[O-] (stereo not drawn)	2586	7	2.1	-26	.	.	-9
O=C(O)CC(SCC(=O)Nc1ccc(Br)cc1)C(=O)O (stereo not drawn)	3576	0	-1.2	0	-10	1	-1
Fc1ccc(CCNc2ncnc3[nH]ncc23)cc1	3478	-3	-0.8	-18	-25	4	.
COc1ccc(NC(=O)Cn2nnc(C(=O)NCCc3ccc(OC)c(OC)c3)c2N)cc1	4158	-8	7.0	-20	5	12	12
CC1(C)C2CCC1(C)C(OC(=O)CCn1ccnc1)C2 (stereo not drawn)	.	-7	4.2	-23	5	7	2
CCCN(CCO)Cc1ccc(F)c(Br)c1	8421	-2	11	-10	12	3	-1
O=C(CCCn1cnc([N+](=O)[O-])n1)Nc1ccc(F)c(Cl)c1	5171	5	-4.7	-21	4	0	6
Cc1cc(/C=C2/C(=O)NN(c3ccccc3)C2=O)c(C)n1-c1ccc(O)cc1	2527	0	11	19	-10	-9	-13
Cc1cc(Cl)c(S(=O)(=O)NC(C)C)cc1OCC(N)=O	2372	-3	-5.4	-10	2	0	-3
COc1ccc(/C=N/N2CCOCC2)cc1COc1ccc(Cl)cc1	2023	.	.	-2	.	.	-4
CC(OC(=O)CN1C(=O)NC2(CCCC2)C1=O)c1ccc(F)cc1 (stereo not drawn)	4902	5	2.2	.	2	-5	.
Cn1nnnc1SC(C(=O)Nc1cccc(C(F)(F)F)c1)c1ccccc1 (stereo not drawn)	9877	-9	0.5	-14	11	-2	-7
Cc1ccc(N(Cc2cc(=O)[nH]c3ccccc23)C(=O)C(C)C)c(C)c1	3722	-6	3.9	-28	-9	-1	-3
CC(C)(C)OC(=O)NCCCC[C@H](NC(=O)c1nc[nH]c1C(=O)NCc1ccc(CNC(=O)OC(C)(C)C)cc1)C(=O)OC(C)(C)C	4306	-14	-12	-25	9	4	4
Cc1nn(-c2ccccc2)c2c1C(c1ccc(O)c(O)c1)N1C(=N2)C(Nc2ccccc2)=Nc2ccccc21 (stereo not drawn)	3231	55	12	-11	14	-2	13
COc1ccc(CNC(=O)/C=C/c2ccccc2[N+](=O)[O-])cc1	2204	2	-1.4	0	0	-4	2
COc1ccc(S(=O)(=O)N2CCN(C(=O)CCSc3ccccc3)CC2)cc1	2999	15	0.7	-12	-1	-3	.
CNc1ccccc1C(=O)OCC(C)=O	3942	.	.	-6	.	.	3
O=S(=O)(c1ccccc1)c1cc(O)ccc1O	4079	0	0.9	0	-4	2	-7
O=C(COC(=O)Cn1cnc2ccccc21)Nc1cccc([N+](=O)[O-])c1	3328	3	11	-21	10	7	5
Cc1nc2ccccn2c1C(=O)NNS(=O)(=O)c1ccc(Cl)cc1	5113	5	3.5	-24	6	5	14
COc1ccc(S(=O)(=O)N2CCCCC2)cc1NC(=O)CSc1ncccn1	2933	2	3.9	4	14	24	.
Cc1ccc(C=NNC(=O)c2cccc(NC(=O)c3ccccc3Cl)c2)o1	.	7	-0.6	.	8	-14	.
Next part:
SMILES	Bead autofluor	Sa ugtP lethal	Sa RN4220 lethal	PrP 5UTR inh	Mtb hypoxia rep	Mtb hypoxia rep growth	BJeLR viability
Cc1nc(N)nc(SCc2ccc([N+](=O)[O-])cc2)c1N	3962	2	2.2	1	17	8	-5
O=C(NCCCc1ccccc1)C1CCN(S(=O)(=O)c2ccc(F)cc2)CC1	5532	3	-0.5	0	1	-4	-1
CCC(C)C(=O)Nc1ccc(S(=O)(=O)Nc2nccs2)cc1 (stereo not drawn)	.	16	5.8	-6	22	19	-1
CSc1ccc(C=NN2CCN(Cc3ccc(C)cc3C)CC2)cc1	.	16	0.5	.	3	-8	.
O=C(CCS(=O)(=O)c1ccc(Cl)cc1)Nc1ccccc1Br	3667	2	2.2	5	0	0	3
COc1ccc(N2CC(C(=O)N(C)CC(=O)Nc3ccc(Cl)c(C(F)(F)F)c3)CC2=O)c(OC)c1 (stereo not drawn)	4611	-6	-1.4	-22	6	-7	-10
CCN(CC)c1ccc(/C=C2\C(=O)N(c3nnc(C)c(=O)[nH]3)N=C2C)cc1	4480	5	8.9	-5	14	11	10
CC(OC(=O)CCCSc1nc2ccccc2s1)C(=O)NC(N)=O (stereo not drawn)	4226	1	3.0	-29	-4	8	-14
COc1ccccc1/C=C1\C(=O)NC(=S)N(c2ccccc2)C1=O	3856	-9	4.6	-17	-8	2	12
COc1cc(C(=O)N/N=C/c2cn(Cc3cccc(F)c3)c3ccccc23)ccc1O	?	.	.	5	.	.	3
CC(C)(C)C1=CC(=O)C(N2CCOCC2)=CC1=O	2092	-1	1.7	-2	0	8	-8
COc1ccc(N2CC(C)Cn3c2nc2c3c(=O)n(CCc3ccccc3)c(=O)n2C)cc1 (stereo not drawn)	7778	.	.	8	.	.	3
Cc1ccc(S(=O)(=O)N(C)C)cc1NC(=O)COC(=O)c1n[nH]c(=O)c2ccccc12	3416	8	2.2	-21	3	0	2
CCOc1ccc(C(=O)/C=C/Nc2ccc(S(=O)(=O)Nc3cc(C)nc(C)n3)cc2)cc1	.	-2	0.6	.	8	-5	-21
c1ccc(-c2cn(-c3ccccc3)c3[n+]2CCCS3)cc1	5383	11	3.8	-17	4	6	9
CC1CCN(c2ccc(C=Nn3nnnc3N)cc2[N+](=O)[O-])CC1	.	-5	1.6	.	9	6	.
CCOc1cc(NC(=S)NCCCN(C)C)c(OCC)cc1NC(=O)c1cccs1	2470	47	-0.1	-5	12	7	4
C=CCN(CC=C)S(=O)(=O)c1ccc(NC(=S)NC(=O)/C=C/c2ccccc2)cc1	2691	16	-0.2	59*	.	.	-4
Nc1nc2ccccc2n1N=Cc1ccc([N+](=O)[O-])s1	.	7	16	.	1	1	.
O=C(CCN1C(=O)S/C(=C\c2ccccc2)C1=O)Nc1ccc(S(=O)(=O)Nc2nccs2)cc1	3149	-7	-4.2	-13	10	22	1
CC(C)OC(=O)c1c(N)n(Cc2ccco2)c2nc3ccccc3nc12	3102	7	-0.2	4	.	.	-5
COc1cccc(C(=O)NCC(=O)NN=Cc2cn[nH]c2-c2ccccc2)c1	.	-1	1.2	.	7	1	.
CCOC(=O)/C(=N/Nc1ccccc1)c1csc(Nc2ccccc2)n1	4433	.	.	-23	.	.	2
NC(=O)C1CCN(c2ncnc3c2c(-c2ccccc2)cn3-c2ccccc2)CC1	5947	11	-5.8	-1	4	8	1

6 entries out of the list, sorted by length of the SMILES, lowest first.
SMILES	Bead autofluor	Sa ugtP lethal	Sa RN4220 lethal	PrP 5UTR inh	Mtb hypoxia rep	Mtb hypoxia rep growth	BJeLR viability
Nc1nc2ccccc2n1N=Cc1ccc([N+](=O)[O-])s1	.	7	16	.	1	1	.
CC(C)OC(=O)c1c(N)n(Cc2ccco2)c2nc3ccccc3nc12	3102	7	-0.2	4	.	.	-5
CC1CCN(c2ccc(C=Nn3nnnc3N)cc2[N+](=O)[O-])CC1	.	-5	1.6	.	9	6	.
COc1cccc(C(=O)NCC(=O)NN=Cc2cn[nH]c2-c2ccccc2)c1	.	-1	1.2	.	7	1	.
NC(=O)C1CCN(c2ncnc3c2c(-c2ccccc2)cn3-c2ccccc2)CC1	5947	11	-5.8	-1	4	8	1
C=CCN(CC=C)S(=O)(=O)c1ccc(NC(=S)NC(=O)/C=C/c2ccccc2)cc1	2691	16	-0.2	59*	.	.	-4

2 compounds drawn at random from the list so far, as already listed:
SMILES	Bead autofluor	Sa ugtP lethal	Sa RN4220 lethal	PrP 5UTR inh	Mtb hypoxia rep	Mtb hypoxia rep growth	BJeLR viability
Cc1cc(Cl)c(S(=O)(=O)NC(C)C)cc1OCC(N)=O	2372	-3	-5.4	-10	2	0	-3
O=C(O)CC(SCC(=O)Nc1ccc(Br)cc1)C(=O)O (stereo not drawn)	3576	0	-1.2	0	-10	1	-1
